gsp ag – activates gsp, the McCune-Albright syndrome mutation; Potency, µM (titrated, usually from 76.9 µM), for the others: at the top dose activation (cAMP increase), usual class: activators; gsp mutant cells, cAMP HTRF, 30 min; control for the full effect not named in the record; AID 624287; 340,000 compounds, 0.13% hits; active = well fitted activation curve with a large enough effect; inconclusive = small, poorly fitted or top-dose-only effect, or another doubt; inactive = no such curve, though single readings can be large or run the other way; cell line not stated here;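 further: phosphodiesterase inhibitor Ro 20-1724 added with compounds to block cAMP breakdown; potency means the concentration at half of the fitted maximal effect; nearly all actives have a fitted effect of over 60% in size; about a fifth of the inactives were tested at one dose only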
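Cells stably selected in G418 were plated at 2000/well, grown 16-24 hr, then given compounds in DMSO with the PDE inhibitor […] (300 uM solution added) for 30 min at 37C; cAMP was read by HTRF.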
gsp antagonist – antagonists of gsp mutant (McCune-Albright syndrome) | gsp-mutant cells, cAMP HTRF, 30 min; control for the full effect not named in the record | Potency, µM (doses to about 76.9 µM), for inactives: at the highest dose activity change, negative = inhibition, actives largely listed as inhibitors | 340,000 compounds, 0.4% hits | AID 624288; active = falling curve of any shape with a large fitted effect; inconclusive = falling curve, mostly with a smaller effect; inactive = flat or rising curve; cell line not stated here;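 further: intracellular cAMP measured with PDE inhibitor Ro 20-1724 present during compound exposure; potency means the concentration at half of the fitted maximal effect; on the % scale 0 is the no-effect control and ±100 the full control effect; nearly all actives have a fitted effect of over 65% in size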
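HTRF cAMP read-out (cAMP-d2 plus anti-cAMP antibody-K in lysis buffer, 30 min RT). Before lysis, cells are exposed to compounds with […] for 30 min at 37C in DPBS containing Ca/Mg, BSA and Tween 20.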
D2 ag – agonists of human D2 dopamine receptor (beta-arrestin); DiscoveRx PathHunter D2 beta-arrestin, luminescence, 90 min; 100% = 57 uM dopamine signal; activation, % (concentration not given with the values); 360,000 compounds, 0.084% hits; in the data active = activation above about 40%; inconclusive = about 15% to 40%; inactive = below about 15%; further: the text of the record calls up to 30% inactive
Target sequence (P14416 whole entry, looked up): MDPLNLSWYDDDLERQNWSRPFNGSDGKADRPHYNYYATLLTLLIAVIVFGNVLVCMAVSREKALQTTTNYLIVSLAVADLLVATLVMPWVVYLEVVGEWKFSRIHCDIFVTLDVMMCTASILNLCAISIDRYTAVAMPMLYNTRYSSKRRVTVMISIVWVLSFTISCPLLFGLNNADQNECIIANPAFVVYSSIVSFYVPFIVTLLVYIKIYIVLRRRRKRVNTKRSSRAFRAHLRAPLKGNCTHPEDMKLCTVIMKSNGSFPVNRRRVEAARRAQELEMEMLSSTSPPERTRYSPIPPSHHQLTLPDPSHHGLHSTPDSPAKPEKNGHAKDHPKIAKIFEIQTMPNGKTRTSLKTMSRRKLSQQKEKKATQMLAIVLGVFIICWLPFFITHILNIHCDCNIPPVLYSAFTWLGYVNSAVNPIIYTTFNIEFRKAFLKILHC
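Agonist mode: compounds alone added to overnight-plated D2 PathHunter cells for 90 min at 37 C, with 57 uM final dopamine (EC100) defining full response. Beta-arrestin recruitment detected by chemiluminescent reagent, read after 1 h at ambient temperature.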
Sfp inh – blocks B. subtilis Sfp PPTase activity; Q9F4F7; Biochemical Sfp PPTase activity, qHTS; Potency, µM, without a hit: max response, negative = inhibition, most hits filed as inhibitors; 310,000 compounds, 3.5% hits; AID 1490; active means well fitted inhibition curve with a large enough effect; inconclusive means small, poorly fitted or top-dose-only effect, or another doubt; inactive means no such curve, though single readings can be large or run the other way;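 further: the enzyme is Sfp with the accession as filed and its product quenches rhodamine fluorescence; potency means the concentration at half of the fitted maximal effect; 0% = enzyme reaction without inhibitor and -100% = no enzyme wells; top concentration of the series not given in the record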
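Reaction rates are the 30-min fluorescence difference (ex 525, em 598 nm) in wells containing 15 nM Sfp, 5 uM rhodamine-CoA and 12.5 uM BHQ-2-YbbR at pH 7.6 with 10 mM MgCl2.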
PINK1 expr mod – changes PINK1 expression; 410,000 compounds, 0.2% hits; PINK1 immunofluorescence, high-content cytometry, 24 h; Potency, µM (titrated, usually from 76.6 µM), for inactives: at the highest dose activation (PINK1 increase), hits mostly activators; active = well fitted activation curve with a large enough effect; inconclusive = small, poorly fitted or top-dose-only effect; inactive = flat fitted curve, though single readings scatter; cell line not stated here;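 further: potency means the concentration at half of the fitted maximal effect; % of control where 0% means no effect; nearly all actives have a fitted effect of over 65% in size; a mitochondrial uncoupler was the plate control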
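Measures PINK1 amount and localization on or inside mitochondria by immunofluorescence. Stable cells get compounds at 5 concentrations for 24 hours before fixation and staining; CCCP controls included.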
Menin-MLL FL inh – displaces fluorescein MLL peptide from human menin; Fluorescence polarization, fluorescein-MLL peptide displacement from menin; FP activity change, % at 61.4 µM; 290,000 tested, under 10 active; inconclusive = falling polarisation curve, or a change in total fluorescence; inactive = total fluorescence flat and polarisation flat or rising; no compound was filed as active; the % refers to the polarisation; negative = inhibition;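 further: % of control where 0% means no effect; inhibitors lower the polarisation; unlabelled MLL peptide was the positive control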
ClpP mod – qHTS Assay for Activators of ClpP; ATP-dependent Clp protease proteolytic subunit (Bacillus subtilis (strain 168)), P80244; purified B. subtilis ClpP, FRET peptide cleavage, 20 min; Potency, µM (highest dose often 57.5 µM), without a hit: at the top dose activity change, negative = active; 340,000 compounds, 1.9% hits; AID 651965, 2013; active = well fitted falling curve with a large enough effect; inconclusive = small, poorly fitted or top-dose-only effect; inactive = no such curve, though single readings can be large or run the other way; further: potency means the concentration at half of the fitted maximal effect; the source files actives as falling curves though it sought activators and does not explain the sign; nearly all actives have a fitted effect of over 65% in size; many hits overshoot -100%
Target sequence (P80244 whole entry, looked up): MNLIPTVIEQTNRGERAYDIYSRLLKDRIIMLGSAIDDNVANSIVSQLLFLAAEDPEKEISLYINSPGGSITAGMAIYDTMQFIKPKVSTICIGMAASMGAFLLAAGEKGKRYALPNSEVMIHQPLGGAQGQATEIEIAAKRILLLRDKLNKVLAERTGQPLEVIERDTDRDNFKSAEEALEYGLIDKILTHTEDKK
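Buffer: 100 mM Tris/HCl pH8, 100 mM KCl, 0.05% low protease BSA, 2.5% glycerol, 0.01% Tween-20. ClpP 10 microg/mL final; 20 min RT; delta FRET normalized to ADEP and DMSO controls.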
* marks the source's active call; other numbers are inactive results; ? = inconclusive; . = not tested or not shown; & = joins results of further samples; [ ] = remark or other dose.

SMILES,gsp ag,gsp antagonist,D2 ag,Sfp inh,PINK1 expr mod,Menin-MLL FL inh,ClpP mod
COc1ccc(-c2ccc(OC)c([C@H]3[C@H]4C=CC[C@@H](C)[C@@H]4C(=O)N3Cc3ccccc3)c2)cc1,.,1%,-4.2,5%,-0.7%,3.6,25µM*
CCOc1ccc(NC(=O)CSc2nnc(-c3ccccc3)n2N)cc1,-25%,-4%,-6.8,-12%,6.2%,1.8,0.5%
COc1ccc(/C=N/N=C/c2ccc(OC)c(O)c2)cc1O,-3%,6%,3.3,-2%,2.8%,1.4,-5.6%
CC(=O)N1c2ccc(S(=O)(=O)N3CCCCC3)cc2CC1C(=O)NCc1cccc(Cl)c1 (stereo unspecified),3%,-4%,-1.0,12%,0.7%,.,.
COc1ccc(NC(=O)CN(C)S(=O)(=O)c2ccc3[nH]c(=O)oc3c2)cc1,8%,-3%,-1.2,20%,0.5%,1.4,-4.4%
NC(=O)c1ccccc1NC(=O)CCCN1C(=O)CCC1=O,-2%,5%,-2.9,6%,0.4%,-1.4,-2.9%
CC(Oc1ccc(Cl)cc1Cl)C(=O)N(C)c1ccccc1 (stereo unspecified),6%,?,1.7,17%,0.9%,-0.2,1.1%
O=C(CCc1ccc(O)c(O)c1)N/N=C/c1ccc2c(c1)OCO2,?,12%,?,40µM*,2.9%,.,-14%
COc1ccc(CNC(=O)C2CCCN(S(=O)(=O)c3ccc(-n4cnnn4)cc3)C2)cc1 (stereo unspecified),7%[15.4 µM],-2%,-3.1,9%,1.4%,-1.1,.
C#CCn1c(=NC(=O)c2ccc(Br)s2)sc2cc(NC(C)=O)ccc21,?,?,-0.4,13%,1.8%,2.1,-24%
CCN(CC)c1ccc(/C=N/n2c(C)nc3ccccc3c2=O)cc1,-11%,-24%,0.8,-12%,-1.5%,5.6,-0.8%
Fc1ccc(-n2cc(CNCCc3ccncc3)c(-c3ccccc3Cl)n2)cc1,-12%,5%,-2.7,4%,1.1%,2.4,0.1%
COc1cccc(/C=N/NC(=O)c2[nH]c(C)c(C(=O)N/N=C/c3cccc(OC)c3O)c2C)c1O,14%,-29%,-2.7,20%,-3.6%,17,-2.9%
Cc1cc(C)n2nc(CC(=O)NC3CCCCCCC3)nc2n1,20%,12%,-0.1,6%,6.2%[38.3 µM],0.9,-2.9%
COC(=O)[C@]1(CC(C)C)N[C@H](c2ccc(-c3ccc(F)cc3)c(OC)c2)[C@@H]2C(=O)N(C)C(=O)[C@@H]21,.,-23%,-0.3,.,6.7%,.,4.0%
COc1cccc(C(=O)Nc2cc(C(=O)NCc3ccc(C)cc3)ccc2N2CCC3(CC2)CC(c2ccccc2)=NO3)c1,-2%,1%,-1.5,6%,-0.2%,-5.5,4.5%
CN1C(=O)[C@H]2[C@@H](/C=C/c3ccccc3)N3C(=O)CN(Cc4ccccn4)C(=O)[C@@]3(C)[C@H]2C1=O,?,6%,-3.6,2%,-0.6%,-4.4,-0.5%
COc1cccc(OC)c1C(=O)Nc1cc(Cl)ccc1N1CCOCC1,-23%,-6%,0.1,2%,2.3%,-1.3,0.1%
Cc1nc(N)c(C#N)c(-c2ccc3c(c2)OCO3)c1C,16%,4%,-3.5,5%,-0.8%,3.9,-2.5%
Cc1ccc(C)c(Cn2c(C(=O)OC(C)C)cc3c2ccn3C)c1,15%,-12%,-5.2,4%,1.8%,4.0,?

SMILES,gsp ag,gsp antagonist,D2 ag,Sfp inh,PINK1 expr mod,Menin-MLL FL inh,ClpP mod
CCCS(=O)(=O)NC(=O)C1(C)CCN(C(=O)c2cc(C)nn2C(C)(C)C)C1 (stereo unspecified),.,.,-6.7,.,-0.4%,.,0.9%
Cc1c(CNC(=O)c2nn3c(c2Cl)NC(c2ccccc2)CC3C(F)(F)F)cnn1C (stereo unspecified),-34%[inhibitor],-8%,3.4,20%,8.0%[38.3 µM],4.6,0.7%
c1ccc(CN2CCOCCOCCOCC2)cc1,10%[15.4 µM],4%,-19,16%,1.4%,1.1,.
O=C(O)COc1c(-c2ccc(Cl)cc2)oc2ccccc2c1=O,-8%[15.4 µM],?,-4.8,12%,1.5%,-6.3,.
COc1ccc(Cl)cc1S(=O)(=O)Nc1noc2ccccc12,13%[15.4 µM],-2%,2.7,6%,4.6%,2.7,-1.4%
COC(=O)c1ccccc1C(=O)N1CCC(CCC(=O)NC2CC2)CC1,6%,18%,-2.7,12%,-0.1%,.,0.6%
O=C1S/C(=C\c2ccc(N3CCOCC3)o2)C(=O)N1Cc1ccc(F)cc1,7%,0%,1.9,2µM*,?,?,-1.6%
O=C1NC[C@H](Cc2ccccc2)N(CC2CCN(CCc3ccccc3)CC2)C1=O,.,3%,-6.9,.,0.3%,.,-1.0%
Cc1ccc(NC(=O)CN(C)S(=O)(=O)c2ccc3[nH]c(=O)oc3c2)c(C)c1,26%,4%,-2.6,12%,-1.0%,.,-0.1%
CCn1c(=O)c([N+](=O)[O-])c(Cl)c2ccccc21,-3%,?,-9.5,9%,-1.7%,-4.8,-0.3%
COC(=O)c1ccccc1NC(=O)CSc1nnnn1C1CCCCC1,-10%,-16%,-2.8,-9%,-3.5%,-1.8,-6.4%
Cc1cc(NC(=O)CSc2nnc(N)s2)c([N+](=O)[O-])cc1C,-2%[15.4 µM],4%,?,1%,-2.1%,-10,0.2%
Cc1nn(-c2ccccn2)c2c1C(c1ccccc1Cl)C1=C(N2)c2ccccc2C1=O (stereo unspecified),5%,13%,-4.2,-6%,2.3%,-3.2,-1.0%
CCn1cc(-c2cc(C(F)(F)F)n3nc(C(=O)O)cc3n2)c(C)n1,0%,-6%,-7.4,5%,0.7%,8.3,-19%
CCOc1cc(-c2noc(CCC(=O)Nc3cccnc3)n2)ccc1OC,-76%,-11%,0.1,5%,-0.8%,1.3,1.8%
CCC(C)(C)NC(=O)/C=C/c1cc(OC)c(OC)c(S(=O)(=O)N2CCc3ccccc32)c1,-10%,8%,-3.5,-2%,?,-2.7,1.7%
C[C@@]12C(=O)N(c3cccc(Cl)c3)C(=O)N1[C@H](c1ccc(Cl)cc1)[C@@H]1C(=O)N(C3CCCCC3)C(=O)[C@@H]12,.,-12%,-3.0,.,-0.2%,.,-4.9%
COc1ccc(N2C(=O)CC(Sc3n[nH]c(-c4ccc(C)cc4)n3)C2=O)cc1 (stereo unspecified),17%[15.4 µM],0%,7.0,25µM*,-1.2%,2.0,.
CCN(CC)C(=O)CN(c1cccc(OC)c1)S(=O)(=O)c1ccc(C)cc1,7%,-2%,-0.7,13%,-0.1%,5.0,0.8%
O=C(COc1ccc2c(c1)OCO2)Nc1ccccc1C(F)(F)F,-31%[inhibitor],2%,-1.2,-4%,5.6%,2.8,.

SMILES,gsp ag,gsp antagonist,D2 ag,Sfp inh,PINK1 expr mod,Menin-MLL FL inh,ClpP mod
CCCCCC(=O)c1c(C)[nH]c(C(=O)OCC)c1C,-4%,-8%,-0.4,-14%,15%,4.8,1.6%
CN1CCN(C(CNS(=O)(=O)c2ccc(Cl)cc2)c2cccnc2)CC1 (stereo unspecified),3%,14%,-1.1,13%,-0.1%,2.9,-3.0%
CCOC(=O)c1cccnc1SC(CC)C(=O)N1CCOCC1 (stereo unspecified),-11%,-2%,-3.4,11%,0.9%[38.3 µM],2.1,-5.1%
Cc1cc(C(=O)C(=O)N(C)C)c(C)n1-c1ccc(Cl)c(Cl)c1,-2%,3%,2.5,7%,0.6%,-0.8,-1.9%
COC(=O)[C@@]12CCCCN1[C@H](c1ccc(-c3ccc(F)cc3)cc1)[C@H]1C(=O)N(C)C(=O)[C@H]12,-7%,2%,-0.9,.,3.8%,.,-2.5%
CC(NC(=O)CN1CCC(C(N)=O)CC1)c1ccccc1 (stereo unspecified),4%,6%,-1.1,5%,0.2%,4.5,-1.0%
Cc1ccc(-n2nnc3c(=O)n(CC(N)=O)cnc32)cc1,17%,2%,-3.1,9%,1.5%,-4.6,.
Cc1cccc(N2CC(C(=O)Nc3ccc(S(=O)(=O)N4CCCCC4)cc3)CC2=O)c1C (stereo unspecified),-38%[inhibitor],-17%,5.9,-2%,5.9%,8.3,.
CCOc1ccc(/C=N/NC(=O)c2cc3c(OC)cc(OC)cc3[nH]2)cc1OC,3%,-23%,?,11%,0.7%,-11,3.7%
O=C(Nc1cccc(F)c1)N1CCC(n2c(=O)[nH]c3ccccc32)CC1,-18%[15.4 µM],-2%,3.4,10%,-1.4%,1.5,.
COc1cc(/C=N/NS(=O)(=O)c2ccccc2)c(OC)c(OC)c1,18%,-6%,-9.6,7%,-0.2%,4.9,-2.4%
CCN(c1ccccc1)S(=O)(=O)c1ccc(Cl)c(NC(=O)COC(=O)c2ccc[n+]([O-])c2)c1,0%[15.4 µM],13%,-5.3,15%,0.6%,3.0,.
CS/C(=C\C(=O)c1ccco1)Nc1ccccc1Cl,8%[15.4 µM],-26%,?,-5%,-1.6%,6.8,.
CC(C)CCNC(=O)c1cccc(C(=O)NCCC(C)C)c1,8%,2%,-2.6,9%,-0.8%,3.6,0.0%
COc1cc(-c2nnc(CSc3nnc(Nc4ccc(C(C)C)cc4)s3)o2)cc(OC)c1OC,-10%[15.4 µM],-28%,5.8,9%,3.7%,9.3,.
CN1CCN(Cc2cn[nH]c2-c2ccc(F)cc2F)[C@@H](c2ccccc2)C1,-1%[15.4 µM],.,-0.2,14%,-1.7%,1.8,.
CCn1c(=O)cc(OCC(=O)N2CCN(c3ccc(F)cc3)CC2)c2ccccc21,1%[15.4 µM],-12%,-4.5,7%,7.0%&1.6%,-3.7,-11%

Single entries from the entries so far:
`CCOC(=O)c1cccnc1SC(CC)C(=O)N1CCOCC1` (stereo unspecified) @ Sfp inh: 11%
`CCN(c1ccccc1)S(=O)(=O)c1ccc(Cl)c(NC(=O)COC(=O)c2ccc[n+]([O-])c2)c1` @ PINK1 expr mod: 0.6%

High-throughput results (PubChem BioAssay)
